# Screening data (PubChem BioAssay)
# T cruzi repl: blocks replication of Trypanosoma cruzi; actives 1.4% (n = 300,000); AID 1885; T. cruzi beta-gal in NIH3T3, luminescence, 90 h; inhibition, % (concentration not given with the values);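 active = mean inhibition across valid replicates above about 55%, limit read from the data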;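 also: signal also drops with host cell toxicity which is not excluded here; 0% = plate median of DMSO wells and 100% = zero luminescence signal; higher percent means less beta-gal luminescence so fewer parasites; stock transfer was 50 nL into about 50 µL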
# Ecoli growth: blocks Escherichia coli growth; OD600, 23 h; hits give low values; OD600 absorbance (concentration not given with the values); actives 0.21% (n = 330,000); AID 1053175;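 active = OD600 absorbance below the run mean of sample wells minus 3.6 SD, in any replicate, cut at about 0.56 in these data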;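 also: stock transfer was 300 nL into about 60 µL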
# UCH37 inh: inhibitors of human deubiquitinating enzyme UCH37 | purified proteasome/UCH37, Ub-AMC cleavage fluorescence | inhibition, % (concentration not given with the values) | actives 0.33% (n = 330,000) | AID 588478;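 active = mean of two replicates above 20%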;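 also: 0% = compound-free wells with enzyme and 100% = wells lacking proteasome; stock transfer was 100 nL into about 20 µL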
# Target sequence (Q9Y5K5 whole entry, looked up): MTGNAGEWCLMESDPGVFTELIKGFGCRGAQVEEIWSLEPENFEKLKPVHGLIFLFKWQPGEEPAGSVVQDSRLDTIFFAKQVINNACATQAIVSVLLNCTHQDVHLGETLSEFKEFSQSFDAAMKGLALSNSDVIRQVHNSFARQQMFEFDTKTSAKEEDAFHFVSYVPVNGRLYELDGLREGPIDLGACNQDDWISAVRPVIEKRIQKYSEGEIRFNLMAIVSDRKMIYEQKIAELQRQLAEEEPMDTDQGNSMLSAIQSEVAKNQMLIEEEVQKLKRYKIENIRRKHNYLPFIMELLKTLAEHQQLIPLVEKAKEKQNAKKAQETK
#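 Schedule: 30 min plus 25 min, room temperature / Material: human UCH37 within purified proteasomes / Technique: AMC fluorescence intensity at 355/460 nm / Buffer or medium: pH 7.4 Tris-HCl (50 mM) with ovalbumin, ATP-MgCl2, DTT / Controls: wells without proteasome as full block, compound-free enzyme plus substrate as uninhibited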
# rRNA inh HTS: selective bacterial rRNA inhibition in E. coli; E. coli WT GFP vs humanized-ribosome RFP mutants, fluorescence, 24 h; hits give low values; DMSO median 0, no signal -100; GFP signal change (wild-type ribosome), % (no concentration beside the values); actives 1.6% (n = 350,000);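 active = significant combined selectivity score with lowered wild-type GFP, culture density cut under 30%, mutant RFP and density less affected; inactive = any of these conditions unmet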; also: one replicate is shown; some compounds called inactive have numbers as strong as hits
# Bfl-1 A1 inh: inhibitors of the anti-apoptotic protein A1, read as caspase activation; MEF A1-2A-BIM cells, Caspase-Glo 3/7 luminescence, 3 h; percent of clofoctol response, vehicle zero; caspase activation, % (concentration not given with the values); actives 0.066% (n = 330,000);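 active = over half of replicate activation scores above 10%, or exactly half above 10 with the replicate mean above 10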;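 also: wells of about 30 µL received 50 nL stock; many hits fall short of the cut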
# Beta cell apopt: blocks beta cell apoptosis; INS-1E cytokine-induced death, ATP luminescence, 48 h; percent of positive-control rescue, neutral wells zero; protection from apoptosis, % (test concentration not listed); actives 0.8% (n = 300,000); AID 435005;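 active = all replicates at 75% or more, or half of them and the mean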;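 also: 0% = cytokine-treated negative control wells and 100% = positive control rescue; higher means more ATP so stronger rescue from cytokine killing; wells of about 40 µL received 100 nL stock; the first replicate is given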
# AF4-AF9 inh: blocks AF4 peptide binding to human AF9. actives 0.47% (n = 350,000). AlphaScreen, biotin-AF4 peptide binding to FLAG-AF9. inhibition, % at 10 µM;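 active = every replicate reaching a set inhibition limit, whatever the replicate mean, cut at about 25% in these data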;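 also: 0% = plate neutral control median and 100% = total signal loss; the record names both 10 and 1 µM as test concentration; the first replicate is given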
# Target sequence (P42568 whole entry, looked up): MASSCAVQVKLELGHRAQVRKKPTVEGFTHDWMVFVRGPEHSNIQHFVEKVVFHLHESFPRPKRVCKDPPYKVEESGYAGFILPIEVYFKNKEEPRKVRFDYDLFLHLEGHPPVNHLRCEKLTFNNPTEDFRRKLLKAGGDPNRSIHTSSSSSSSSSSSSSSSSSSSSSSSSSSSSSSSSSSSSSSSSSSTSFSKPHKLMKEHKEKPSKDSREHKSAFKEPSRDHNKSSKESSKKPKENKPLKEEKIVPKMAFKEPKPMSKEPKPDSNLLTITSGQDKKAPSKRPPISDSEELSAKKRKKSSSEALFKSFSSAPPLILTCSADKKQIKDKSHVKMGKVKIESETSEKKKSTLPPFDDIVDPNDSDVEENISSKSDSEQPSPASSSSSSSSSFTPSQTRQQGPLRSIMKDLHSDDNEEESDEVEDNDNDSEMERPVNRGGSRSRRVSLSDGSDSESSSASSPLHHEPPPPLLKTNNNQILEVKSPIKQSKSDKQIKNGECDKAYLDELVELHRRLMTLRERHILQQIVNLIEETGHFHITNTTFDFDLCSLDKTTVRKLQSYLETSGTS
# FGF22 binding: FGF22 (human) thermal shift binding; recombinant FGF22 thermal shift, SYPRO orange fluorescence; percent of sucrose octasulfate shift, DMSO zero; calls only at 9.99 µM; actives 1.5% (n = 340,000); AID 651658;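 active = melting point raised past a set limit in the mean and every replicate; three in four hits are not shown here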
# Target sequence (Q9HCT0 whole entry, looked up): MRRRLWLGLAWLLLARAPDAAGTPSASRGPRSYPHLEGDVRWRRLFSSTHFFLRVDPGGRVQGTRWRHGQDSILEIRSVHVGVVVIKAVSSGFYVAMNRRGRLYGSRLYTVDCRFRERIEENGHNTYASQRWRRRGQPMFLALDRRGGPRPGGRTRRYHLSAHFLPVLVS
# rRNA inh HTS OD600: recorded beside rRNA inh HTS, whose call it bears; OD600 change, %; measured here: OD600 growth;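 optical density of the mix in the first replicate; 0 = DMSO median and -100 = no signal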
# rRNA inh HTS RFP: recorded beside rRNA inh HTS, whose call it bears; RFP signal change, %; measured here: RFP humanized mutant strains;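 first replicate; 0 = DMSO median and -100 = no signal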
# The depositor's hits bear a star; i = inactive; / = not tested or not shown.
SMILES,T cruzi repl,Ecoli growth,UCH37 inh,rRNA inh HTS,rRNA inh HTS OD600,rRNA inh HTS RFP,Bfl-1 A1 inh,Beta cell apopt,AF4-AF9 inh,FGF22 binding
O=C(Nc1nnc(-c2cccs2)o1)c1cccc(C(F)(F)F)c1,48.0,0.498*,6.6,-57.9,-76.9,-17.2,0.0,/,-6.5,i
CCc1ccc(NC(=O)CSc2nnc(-c3ccco3)o2)cc1,-8.5,0.721,5.2,2.7,6.6,-0.1,-0.1,/,-0.1,i
O=c1[nH]c(C2CCN(S(=O)(=O)c3ccc(C(F)(F)F)cc3)CC2)nc2c1nnn2Cc1ccc(F)cc1,17.4,/,/,-6.8,-8.2,3.0,0.9,/,0.0,i
COc1ccc(CCNS(=O)(=O)c2cccc3nsnc23)cc1OC,-8.8,0.65,2.3,/,/,/,-0.8,-10.3,/,/
Cc1c(C)c2ccc(OCC(=O)Nc3ccc(S(N)(=O)=O)cc3)c(C)c2oc1=O,6.6,0.66,-72.4,4.7,-4.7,-1.1,0.3,-1.4,-3.3,i
O=C(O)c1ccccc1,/,0.682,0.7,-2.4,-0.5,-6.1,/,/,-1.5,i
Nc1ncnc(Nc2cccc(Cl)c2Cl)n1,-19.5,0.701,1.5,12.9,12.3,-0.4,-0.5,-5.6,-0.4,i
C#CCOCCOCCOCCNc1nc(N2CCN(C(=O)[C@H](CCCCN)n3cc([C@@H](N)C(C)CC)nn3)CC2)nc(N2CCN(C(=O)[C@H](Cc3cc4ccccc4[nH]3)n3cc([C@@H](N)CC(C)C)nn3)CC2)n1 (stereo not given in full),-15.7,/,1.7,/,/,/,1.2,-24.5,/,/
NC(=O)C1CCN(C(=O)CCc2nc3sc4c(c3c(=O)[nH]2)CCCC4)CC1,-6.3,0.682,-5.6,11.2,21.5,2.0,-0.3,0.5,-0.3,i
Cc1c(OC(=O)c2ccc([N+](=O)[O-])cc2)c2c(c[n+]1C)COC(C)(C)OC2,-14.1,0.754,0.7,/,/,/,0.8,-13.9,/,/
Cc1cc(OCCn2cc(/C(N)=N/O)c3ccccc32)ccc1Cl,23.2,0.664,5.5,-40.0*,-9.1*,6.7*,0.3,-0.6,/,/
Fc1ccc(CNC(=S)NCc2ccccc2)cc1,-3.5,/,/,-7.4,-13.7,-0.8,0.3,-0.6,-1.4,i
Fc1ccc(N2CCN(Cc3nnc(-c4ccccc4)o3)CC2)cc1,4.9,0.708,6.2,1.8,6.5,-3.0,0.4,-2.4,-2.7,i
CC1(C)NC(=O)N(CNc2cc(Cl)ccc2Cl)C1=O,4.7,0.762,3.2,/,/,/,-0.2,-3.5,/,/
Cc1ccc(-c2csc(NC(=O)c3ccco3)n2)cc1C,-4.0,0.672,-2.4,-17.6,-32.2,1.1,-0.9,2.7,-2.9,i
Cc1cc([N+](=O)[O-])nn1CC(=O)NNC(=S)Nc1ccc(Cl)cc1,-11.1,0.704,7.0,/,/,/,1.2,-6.6,/,/
Cc1ccc2nc3sc(C(=O)Nc4c(C)[nH]c(=O)[nH]c4=O)c(N)c3cc2c1,-5.4,0.719,-4.3,/,/,/,0.1,-17.5,/,/
CCc1sc(C(=O)NCc2ccco2)cc1Br,-3.5,0.652,1.3,-20.4,-21.5,-0.6,-0.8,/,0.0,i
O=C(NC1CC1)C1=C[C@@H](C2CCCCC2)C[C@@H](OCc2ccc(CO)cc2)O1,27.2,/,2.1,-19.0,-37.9,1.9,0.3,-9.0,-4.0,i
O=C(O)/C=C/c1cn(-c2ccccc2)nc1-c1cc2ccccc2oc1=O,8.3,0.693,7.1,-13.4,-0.3,-1.0,0.5,-4.9,3.2,i
O=C(Nc1ccccc1)c1cc(-c2ccccc2Cl)no1,-8.9,0.764,5.2,/,/,/,-3.9,-2.6,/,/
COc1ccccc1NC(=O)CC1SC(=N)N(c2ccccc2)C1=O (stereo not given),-2.6,0.723,3.4,0.8,2.2,-0.2,-0.4,1.4,1.7,i
COc1ccc(OC)c(NC(=O)CCc2c[nH]c3ccccc23)c1,-11.9,0.691,5.7,-18.9,-16.4,-2.1,-0.1,-10.5,7.0,/
O=C(Nc1ccccc1C(=O)NC1CC1)c1ccc([N+](=O)[O-])o1,/,0.525,4.1,-5.5,3.5,-3.2,/,/,4.9,i
CC1CCc2c(sc(/N=C/N(C)C)c2C#N)C1 (stereo not given),17.8,/,/,-26.6,-42.5,-9.7,-0.5,-1.5,8.1,i
O=C(Nc1ccc(C(=O)NCc2ccccc2)cc1)C1=CSCCO1,0.6,0.671,7.7,14.4,18.5,3.6,0.1,-2.1,-1.1,i
O=C(COC(=O)c1cncc(Br)c1)NC1CC1,-1.5,0.683,1.4,/,/,/,0.6,/,/,/
O=C(N/N=C/c1sc(N2CCOCC2)nc1-c1ccccc1)c1cccc(S(=O)(=O)N2CCOCC2)c1,37.1,/,/,-2.5,-10.6,23.6,0.2,113.3*,-13.6,i
NC(=S)n1[nH]c(-c2ccc([N+](=O)[O-])cc2)c(N=Nc2ccc(O)cc2)c1=O,15.9,0.701,3.2,/,/,/,0.9,/,/,/
Cc1ccc(C)c2[nH]c(=O)c(CN(CC3CCCO3)C(=O)NC3CCCCC3)cc12 (stereo not given),8.7,0.698,-12.6,/,/,/,-0.2,3.5,/,/
C/C(=N/NC(=O)C1COc2ccccc2O1)c1ccco1 (stereo not given),-9.8,/,/,/,/,/,0.5,6.7,-0.3,i
CC1(C)CC(=O)C(C=NCCCn2ccnc2)=C(O)C1,-5.4,0.721,2.4,/,/,/,0.4,-4.9,/,/
Cc1c(C)c(C)c(CN2CCSCC2)c(C)c1C,-0.5,0.643,3.4,14.8,6.2,-1.7,-0.4,-7.6,1.1,i
COc1ccccc1NC(=O)CCc1nc2ccccc2s1,3.9,0.67,0.0,-16.9,-4.8,-3.5,-0.3,/,-1.1,/
O=C(CCl)NC(=O)NC12CC3CC(CC(C3)C1)C2,11.7,0.694,2.9,15.0,7.6,-6.4,0.7,-1.8,4.7,i
COC(=O)C(CC(=O)c1ccccc1)CC(=O)c1ccccc1,1.1,0.641,-0.8,1.9,-4.3,-0.8,0.6,-4.3,-2.0,i
CCCCNc1c(-c2ccc(SC(C)CC)c(OC)c2)nc2ccc(C)cn12 (stereo not given),29.0,0.742,-334.5,-21.8,-29.2,2.9,-1.5,52.9,10.0,i
O=C(c1ccccc1)C1CC=CCC1C(=O)c1ccccc1 (stereo not given),/,0.65,3.8,3.8,-24.9,12.2,/,/,2.3,i
Cc1cc(C(=O)NCCc2ccccc2)ccc1[N+](=O)[O-],-1.7,0.692,7.6,2.6,7.1,-2.9,0.0,5.1,3.8,i
Cc1ccc(C)c(NS(=O)(=O)c2cc(C(=O)NCc3ccccn3)ccc2Cl)c1,9.0,0.68,1.5,/,/,/,-0.1,0.0,/,/
COc1ccc(OC)c(NC(=O)C2CCN(S(=O)(=O)c3ccc4c(c3)CC(C)N4C(C)=O)CC2)c1 (stereo not given),11.9,0.688,-1.0,-0.4,0.2,1.5,0.1,-0.6,-7.3,i
Cc1cccc(C)c1NC(=O)CNC(=O)COC(=O)c1ccc(Cl)s1,/,0.669,-0.9,6.9,14.2,-0.6,0.0,-1.9,2.3,i
CCCCn1c(=O)c(CCC(=O)OCC(=O)NC(=O)NCCOC)nc2ccccc21,-3.1,0.634,-25.9,10.3,-6.5,-0.5,0.1,-0.8,-1.3,i
O=C(N/C(=C\c1ccc(Br)cc1)C(=O)N1CCOCC1)c1ccc(Br)o1,6.2,/,/,1.2,-0.7,-0.7,-0.6,3.9,-2.6,i
COc1ccc2cc(Br)ccc2c1CC(=O)NCCCN1CCOCC1,4.3,0.674,4.4,9.6,0.1,2.2,1.0,-10.4,-3.9,i
Cc1ccccc1NC(=O)CN1C(=O)NC(C)(c2ccc3c(c2)OCO3)C1=O (stereo not given),-7.0,0.754,0.0,/,/,/,2.0,-0.2,/,/
COc1ccc(-n2ccnc2SCC(=O)NCc2ccc(F)cc2)c(OC)c1,2.6,0.66,1.5,-8.0,-8.0,1.0,-1.0,-8.5,0.4,i
CCC(C(=O)NC1CCCC1)N(C(=O)c1snc(C(N)=O)c1N)c1ccc2c(c1)OCCO2 (stereo not given),0.6,0.745,-11.8,19.5,19.6,-9.1,1.8,-1.5,-52.2,i
COc1ccc(CCNC(=O)c2csc3c2CCCC3)cc1,3.4,0.716,1.1,-0.2,7.5,-0.7,-0.5,-0.2,-8.7,i
COc1cc(C(=O)Nc2ccc(C(F)(F)F)cc2)ccc1OCC(=O)N1CCOCC1,/,0.709,1.3,-1.5,-3.5,-1.4,/,/,-13.6,i
CC1(C)C2([N+](=O)[O-])CN3CC1([N+](=O)[O-])CN(C2)C3c1ccccc1 (stereo not given),-4.2,0.767,-0.7,/,/,/,-0.2,-1.1,/,/
CC1CN(CCC(=O)Nc2ccc3c(c2)CCC3)CC(C)O1 (stereo not given),3.5,0.704,2.4,6.1,-0.5,-3.5,0.0,-4.4,/,/
Cc1ccc(-c2ccc(SCC(=O)c3ccccc3)nn2)cc1,21.3,0.699,1.9,/,/,/,-0.6,-3.6,/,/
CCCCOC(=O)c1ccc(NC(=O)Nc2ccc(OC)c(OC)c2)cc1,-18.3,0.691,38.0*,/,/,/,0.1,2.9,/,/
Cc1scc(C(=O)NNC(=S)NCC2CCCO2)c1C (stereo not given),-1.4,0.733,1.2,/,/,/,-0.6,3.4,/,/
COCCCNC(=S)NNC(=S)Nc1ccc(OC)cc1,-14.2,0.682,0.4,-5.1,2.8,-3.2,-0.6,5.8,0.7,i
O=C(Nn1cnc2ccccc2c1=O)c1c(F)cccc1F,-6.2,0.608,0.2,-3.3,4.9,-7.6,0.3,0.6,-1.9,i
O=c1c2[nH]c3ccccc3c2ncn1Cc1ccccn1,-0.9,0.697,-1.9,/,/,/,0.9,0.3,/,/

# A different layout for some results above:
# Every second line gives: T cruzi repl | Ecoli growth | UCH37 inh | rRNA inh HTS | rRNA inh HTS OD600 | rRNA inh HTS RFP | Bfl-1 A1 inh | Beta cell apopt | AF4-AF9 inh | FGF22 binding
CCC(C(=O)NC1CCCC1)N(C(=O)c1snc(C(N)=O)c1N)c1ccc2c(c1)OCCO2 (stereo not given)
 : 0.6 | 0.745 | -11.8 | 19.5 | 19.6 | -9.1 | 1.8 | -1.5 | -52.2 | i
COc1ccc(CCNC(=O)c2csc3c2CCCC3)cc1
 : 3.4 | 0.716 | 1.1 | -0.2 | 7.5 | -0.7 | -0.5 | -0.2 | -8.7 | i
COc1cc(C(=O)Nc2ccc(C(F)(F)F)cc2)ccc1OCC(=O)N1CCOCC1
 : / | 0.709 | 1.3 | -1.5 | -3.5 | -1.4 | / | / | -13.6 | i
CC1(C)C2([N+](=O)[O-])CN3CC1([N+](=O)[O-])CN(C2)C3c1ccccc1 (stereo not given)
 : -4.2 | 0.767 | -0.7 | / | / | / | -0.2 | -1.1 | / | /
CC1CN(CCC(=O)Nc2ccc3c(c2)CCC3)CC(C)O1 (stereo not given)
 : 3.5 | 0.704 | 2.4 | 6.1 | -0.5 | -3.5 | 0.0 | -4.4 | / | /
Cc1ccc(-c2ccc(SCC(=O)c3ccccc3)nn2)cc1
 : 21.3 | 0.699 | 1.9 | / | / | / | -0.6 | -3.6 | / | /

# An excerpt; count on the stated rates, not on these rows.
